Assay outcomes from PubChem.
AID923: qHTS Assay for Allosteric/Competitive Inhibitors of Caspase-1: Spectroscopic Profiling in AFC Spectral Region | compound fluorescence, AFC spectral region (405/520 nm); almost no hit is shown here | Potency, µM (highest dose often 57.5 µM), for the others: top-dose fluorescence increase, actives largely listed as activators | hit rate 1.1% among 75,000 | AID 923, 2007; active = well fitted activation curve with a large enough effect; inconclusive = small, poorly fitted or top-dose-only effect;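 also: potency is read from the fitted curve at half-maximal effect; 0% is about no effect; scaled to a free AFC standard on each plate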
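Compound autofluorescence profiled at 405 nm ex/520 nm em during kinetic caspase 1 run (50 nM enzyme, 5 uM Ac-WEHD-AFC, HEPES pH 7.5, 10 mM DTT). Titration up to 57 uM; baseline from regression intercept, normalized to AFC standard curve.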
A488 autofl: compound fluoresces in the A488 spectral region; max dye equivalency, M; hit rate 0.1% among 59,000; compound autofluorescence, A488 spectral region, dye equivalency; hits give high values; AID 591; active = above 10 nM dye equivalent; inconclusive = 1 to 10 nM; inactive = 1 nM or less; about half of its hits are not listed in these tables;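 also: highest value over a series up to 38 µM; compound alone in buffer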
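Compound autofluorescence was read in 100 mM Tris pH 8.0 after 15 min at room temperature, ex 480 nm/em 540 nm. Intensities were converted to A488 dye-equivalent concentration using an on-plate six-point A488 standard curve.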
Resorufin autofl: resorufin region autofluorescence; Compound fluorescence, resorufin region 547/598 nm, buffer; hits give high values; max dye-equivalent concentration, M; hit rate 0.04% among 59,000; active = above 10 nM dye equivalent; inconclusive = 1 to 10 nM; inactive = 1 nM or less; a few of its hits are not listed in these tables; also: highest value over a series up to 38 µM
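Tris 100 mM pH 8.0; compound added, 15 min RT; CCD imager read, ex 547 nm/em 598 nm; signal normalized to resorufin standard curve (six concentrations per plate) as dye-equivalent concentration.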
A647 autofl: compound autofluorescence in A647 spectral region. Compound fluorescence, A647 channel (570/671 nm), Tris buffer. max dye-equivalent concentration, M. 59,000 tested, under 10 active; active means above 1 µM dye equivalent; inconclusive means 0.1 to 1 µM; inactive means 0.1 µM or less;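 also: values scaled relative to a standard on each plate; highest value over a series up to 38 µM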
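Buffer was dispensed, compounds and Alexa 647 standards were pin-transferred, and plates sat 15 min at room temperature. Intensity at 570/671 nm was then converted to dye-equivalent concentration using the plate's A647 standard curve.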
TSHR agonist: TSH receptor (human) agonism; P16473; HEK293-CNG-TSHR cells (CNG channel as cAMP sensor), membrane potential dye, cAMP; hit rate 0.48% among 73,000; Potency, µM (doses to about 57.1 µM), for inactives: at the highest dose activation, most hits filed as activators; AID 926; active = well fitted activation curve of enough size with the parental cells flat; inconclusive = any curve in the parental cells; inactive = parental cells flat and receptor cells flat or falling; also: potency is read from the fitted curve at half-maximal effect; % of control where 0% means no effect; weak receptor curves with flat parental cells got no call and are not listed
Target sequence (P16473 whole entry, looked up): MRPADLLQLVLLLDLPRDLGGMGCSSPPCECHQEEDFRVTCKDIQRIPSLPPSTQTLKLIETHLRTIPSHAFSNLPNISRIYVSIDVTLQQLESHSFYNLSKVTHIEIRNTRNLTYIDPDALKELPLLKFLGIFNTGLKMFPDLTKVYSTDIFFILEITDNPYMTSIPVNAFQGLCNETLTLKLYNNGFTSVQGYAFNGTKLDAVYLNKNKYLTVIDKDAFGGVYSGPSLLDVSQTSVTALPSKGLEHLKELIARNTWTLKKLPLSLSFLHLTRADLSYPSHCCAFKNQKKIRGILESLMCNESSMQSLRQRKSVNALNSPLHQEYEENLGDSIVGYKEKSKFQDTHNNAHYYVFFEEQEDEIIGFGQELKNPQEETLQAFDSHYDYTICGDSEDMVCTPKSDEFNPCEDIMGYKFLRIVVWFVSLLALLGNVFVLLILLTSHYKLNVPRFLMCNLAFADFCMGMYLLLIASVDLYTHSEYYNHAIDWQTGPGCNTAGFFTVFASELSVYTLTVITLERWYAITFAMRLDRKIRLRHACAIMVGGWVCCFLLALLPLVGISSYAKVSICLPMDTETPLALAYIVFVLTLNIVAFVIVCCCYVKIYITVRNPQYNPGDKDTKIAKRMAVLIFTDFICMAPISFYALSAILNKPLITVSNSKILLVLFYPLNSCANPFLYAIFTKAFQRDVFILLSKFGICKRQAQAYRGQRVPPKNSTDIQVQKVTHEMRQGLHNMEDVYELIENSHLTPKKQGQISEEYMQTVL
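HEK 293 cells stably expressing TSHR and a modified CNG channel, with CNG-only parental cells as counterscreen, were preloaded 60 min at room temperature with membrane potential dye containing 100 uM RO 20-1724. Compound exposure was 30 min, and depolarization was read as fluorescence at 590 nm.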
The depositor's hits bear a star; i = inactive; ? = inconclusive; / = not tested or not shown; & = joins results of further samples; [ ] = remark or other dose.

SMILES	AID923	A488 autofl	Resorufin autofl	A647 autofl	TSHR agonist
Clc1ccc(-c2nnc3sc(-c4ccco4)nn23)c(Cl)c1	-0.3%	i	i	1e-08	-0.3%
CC(C)CCN(C)C1CCN(S(=O)(=O)c2ccc(F)cc2)CC1	0.0%	/	/	/	?
Cn1c(C(=O)NCc2ccc3c(c2)OCO3)cc2sccc21	-0.2%	i	i	1.8e-09	?
Cn1c2ccccc2c2cnn(CC(=O)N3CCN(c4ncccn4)CC3)c(=O)c21	-0.2%	i	i	6.7e-09	15.4%
CCOC(=O)C1=C(C)N2C(=C(C#N)[C@@H]1c1ccc(C(=O)OC)cc1)SC[C@@]2(O)C(C)(C)C	1.7%	i	i	4.23e-08	?
COC(=O)C1C2C=CC3(CN(C4CCCC4)C(=O)C13)O2 (centres undefined)	0.6%	i	i	8.7e-09	-3.7%
CC1(C)CC(NS(=O)(=O)c2ccccc2)CC(C)(C)N1	0.6%	i	i	3.2e-09	9.7%
CC1=CC(C)C(C(=O)O)C(C(=O)O)C1 (centres undefined)	0.6%	/	/	/	-8.9%
COc1ccccc1CNC(=O)C1CCCN(S(=O)(=O)c2cnc[nH]2)C1 (centres undefined)	-3.1%	/	/	/	11.8%
CCOC(=O)C1CCCN(C(=O)c2ccc3c(c2)OCO3)C1 (centres undefined)	0.2%	i	i	1.7e-08	-13.6%
O=C(O)C1CCCCC1C(=O)NCCc1cccc(Cl)c1 (centres undefined)	-1.1%	i	i	1e-09	24.4%
O=C(NCCCN1CCCC1=O)c1ccc(CNS(=O)(=O)c2ccc(F)cc2)cc1	0.8%	i	i	1.75e-08	1.5%
CCOC(=O)N1CCC(c2cc(=O)n3[nH]c(-c4ccccc4)cc3n2)CC1	3.3%	/	/	/	-3.5%
Cc1cc(C)nc(SCC(=O)Nc2ccc(N3CCOCC3)c(Cl)c2)n1	1.4%	i	i	1e-09	12.1%
Cn1cccc1C(=O)N1CCC2(CC1)CCN(c1ccccn1)CC2	1.3%	i	i	1.6e-09	14.8%
Cc1cc(C)n(-c2ccc(C(=O)Nc3nc4ccccc4s3)cc2)n1	0.4%	i	i	4.05e-08	?
Cc1cccc2cc(CN(Cc3ccco3)S(=O)(=O)c3ccc4c(c3)OCCO4)c(=O)[nH]c12	0.3%	i	i	2.33e-08	9.1%
Cc1ccc2ncnc(NCCCN3CCOCC3)c2c1	1.2%	i	i	6.4e-09	3.0%
COC(=O)CSc1nc2ccccc2nc1SCC(=O)OC	0.0%	i	i	1.08e-08	?
CCN1CCN(C(=O)C2c3cc(OC)c(OC)cc3C(=O)N3CCc4ccccc4C23)CC1 (centres undefined)	-0.4%	i	i	1.23e-08	2.9%

Record cards (already shown). Order of screens: AID923, A488 autofl, Resorufin autofl, A647 autofl, TSHR agonist
Cc1ccc2ncnc(NCCCN3CCOCC3)c2c1 in the list: 1.2%, i, i, 6.4e-09, 3.0%
CCOC(=O)C1CCCN(C(=O)c2ccc3c(c2)OCO3)C1 (centres undefined) in the list: 0.2%, i, i, 1.7e-08, -13.6%
COC(=O)C1C2C=CC3(CN(C4CCCC4)C(=O)C13)O2 (centres undefined) in the list: 0.6%, i, i, 8.7e-09, -3.7%
CC1(C)CC(NS(=O)(=O)c2ccccc2)CC(C)(C)N1 in the list: 0.6%, i, i, 3.2e-09, 9.7%
O=C(NCCCN1CCCC1=O)c1ccc(CNS(=O)(=O)c2ccc(F)cc2)cc1 in the list: 0.8%, i, i, 1.75e-08, 1.5%

More records.
SMILES	AID923	A488 autofl	Resorufin autofl	A647 autofl	TSHR agonist
COC(=O)c1cc(Br)c(=O)n(-c2ccccc2OC)c1	0.5%	i	i	2.9e-09	0.2%
CCCN1CCN(CCCNC(=O)c2cc3c(=O)n(C)c4ccccc4c3n2C)CC1	-0.9%	/	/	/	?
CCC1(C)Cc2ccccc2-c2nc3n(c(=O)c21)CCCCC3 (centres undefined)	-1.0%	i	i	8.2e-09	-2.8%
COc1ccc(-c2cc(C(F)F)nc(-n3nc(C)cc3C)n2)cc1	0.1%	i	i	7.2e-09	?
CCCCOc1cccc(C(=O)N(Cc2ccco2)C2CCS(=O)(=O)C2)c1 (centres undefined)	3.1%	i	i	5.2e-09	?
O=C(NCc1cccc(CNC(=O)c2ccco2)c1)c1ccco1	0.4%	/	/	/	25.0%
COCn1c2ccccc2c2nnc(C(C)=O)nc21	-2.4%&0.5%[11.5 µM]	/	/	/	-1.2%&8.7%[11.4 µM]
COc1ccccc1NC(=O)N(C1CCCC1)C1CCN(C(C)=O)CC1	0.7%	/	/	/	1.9%
Cc1cc(C)n(CC(=O)c2ccccc2)c(=O)c1C#N	/	i	i	1e-09	/
CCOC(=O)c1ccc(NC(=O)CSc2nnnn2CCCO)cc1	-0.6%	i	i	1e-09	-4.7%
Cc1oc(-c2ccccc2F)nc1CN1CCC(C(=O)NC2CC2)CC1	1.0%	i	i	3.5e-09	-5.0%
CC(C)[C@H](N)c1nnc(SCc2ccc(Cl)cc2)o1	2.9%	i	i	1e-09	-3.0%
Cc1cccc(-c2nc(CN3CCCC(C(=O)NC4CCCCCC4)C3)c(C)o2)c1 (centres undefined)	-1.3%	i	i	4.2e-09	5.8%[11.4 µM]
Cc1cc(SCC(=O)N2CCC(c3noc4ccc(F)cc34)CC2)nc2ccccc12	-0.1%	i	i	4.51e-08	/
COc1ccc2[nH]c(=O)c(CN(C(=O)NC3CCCCC3)C3CCCCC3)cc2c1	0.0%	i	i	6.8e-09	11.7%
CC1(C)N=C(N)N=C(N)N1c1cccc(OCc2cccc([N+](=O)[O-])c2)c1	0.2%[11.5 µM]	i	i	4.58e-08	10.9%[11.4 µM]
Cc1ccsc1C(=O)Nc1nnc(-c2ccco2)o1	2.1%	i	i	1e-09	8.9%[11.4 µM]
Cc1ccc(NC(=O)CS(=O)CC(=O)N(CC(=O)NC2CCCC2)c2cccc(C)c2C)cc1 (centres undefined)	0.1%	i	i	3.98e-08	10.6%
O=C1C2C3C=CC(C3=C3CCCCC3)C2C(=O)N1Cc1ccccc1 (centres undefined)	-0.8%	i	i	2.16e-08	/
COC(=O)[C@@]1(Cc2ccc(F)cc2)[C@H]2c3cc(C(=O)N(C)C)n(CCc4ccc(O)c(O)c4)c3C[C@H]2CN1C(=O)c1ccccc1	-2.1%	/	/	/	6.4%
Nc1nnnn1/N=C/c1ccccc1OCc1ccccc1	-2.7%	/	/	/	?
N#CCCN1CCN(C(=S)c2ccc(-c3ccc(Cl)cc3)o2)CC1	-0.5%	i	i	1.55e-08	-6.1%
CCN1C(=O)/C(=c2\o/c(=C3\C=Cc4ccccc4N3CC)c(=O)n2CC)SC1=S	-0.1%	i	i	2.56e-08	?
COc1ccccc1C(=O)Nc1ccc2c(c1)nc(CN1CCN(C(C)=O)CC1)n2C	-0.3%	i	i	5.8e-09	-3.3%
CCCCC(=NCCO)C1=C(O)C(C(=O)OC)C(C)(C)CC1=O (centres undefined)	-0.2%	i	i	3.98e-08	0.4%
Cc1ccc(CCN2CC(C(=O)NCCCN(C)Cc3ccccc3)CC2=O)cc1 (centres undefined)	0.5%	i	i	5.1e-09	6.2%
CC1(C)CC(=O)C2=C(C1)NC(=O)CC2c1ccccc1F (centres undefined)	-0.6%	i	i	3.25e-08	13.2%
COc1ccc(CCn2c(=N)c(C(=O)NCc3ccco3)cc3c(=O)n4ccccc4nc32)cc1	/	i	i	2.7e-09	/
Cn1c(SCC(=O)c2ccccc2)nnc1-c1cnccn1	9.3%	i	i	2.6e-09	-1.6%
Cc1cc(C)cc(N(CC(=O)NCC2CCCO2)S(=O)(=O)c2c(C)noc2C)c1 (centres undefined)	-2.2%	/	/	/	5.2%
Cc1nnc2ccc(N3CCN(c4cccc(C(F)(F)F)c4)CC3)nn12	0.3%	/	/	/	6.3%
CN(C(=O)COc1ccc(C(C)(C)C)cc1)C1CCS(=O)(=O)C1 (centres undefined)	-3.5%	i	i	1.81e-08	5.0%
COCCCNc1oc(-c2ccccc2OC)nc1C#N	0.0%	i	i	2.08e-08	-0.8%
O=C(COc1cccc(NC(=O)c2ccco2)c1)c1ccc(F)cc1	0.4%	i	i	2.73e-08	?
COc1ccc(Cl)c(Cn2c(NCc3ccccn3)nc3c2c(=O)n(C)c(=O)n3C)c1	0.6%	i	i	2.28e-08	17.7%
Cc1cc(C(=O)N(C)Cc2ccc(Br)cc2)no1	0.5%	i	i	4.6e-09	3.7%
NC1(C(=O)O)CC1	-0.7%&-5.7%	i	i	1e-09	?
CCCN(CCC)C(=O)C1CCN(c2cc(C)nc3c(-c4ccc(OC)c(OC)c4)c(C)nn23)CC1	15.7%	/	/	/	-1.4%
Cc1nc(SCc2nc3ccccc3[nH]2)c2oc3ccccc3c2n1	6.9%	i	i	4.8e-09	20.4%
CCOC(=O)c1c(NC(=O)CC)sc(C(C)=O)c1C	1.1%	i	i	1.44e-08	7.4%
COc1ccc(-c2nnc3ccc(SCC(=O)N4CCCCC4)nn23)cc1OC	0.0%	/	/	/	-4.5%
CC(=O)c1ccc(C(=O)Nc2ccc(N3CCOCC3)cc2)cc1	1.0%	/	/	/	21.8%
O=C(C1Cc2ccccc2CN1S(=O)(=O)c1ccc(F)cc1)N1CCCCC1 (centres undefined)	-0.1%	i	i	1.29e-08	?
CCOC(=O)c1sc(C(=O)OCC)c(OCCO)c1OCCO	0.4%	i	i	4.7e-09	-9.5%[11.4 µM]
CC(C)(C)SCCNC(=O)COc1ccc(Cl)cc1	-2.2%	/	/	/	5.6%[11.4 µM]
CCC(C)Nc1nc(-c2cccc(OC)c2O)nc2ccccc12 (centres undefined)	/	i	i	2.4e-09	/
O=C(CN1CCN(S(=O)(=O)c2ccc(Br)cc2)CC1)Nc1ccc2c(c1)OCO2	-2.6%	/	/	/	?
CS(=O)(=O)Nc1cccc(-c2nc(NC3CC3)c3ccccc3n2)c1	2.9%	i	i	1e-09	15.3%
COc1ccc(C(=O)Nc2ccccc2N2CCOCC2)cc1Br	/	i	i	2.65e-08	/
Cc1ccc(-c2csc(/C(C#N)=C(\O)CN3CCN(C(=O)c4ccco4)CC3)n2)cc1	4.5%	i	i	7.5e-09	-7.0%
O=C(c1cccc(Cl)c1)N1CCN(c2ccccn2)CC1	-0.8%	i	i	2.4e-08	4.6%
O=C(COC(=O)c1ccccc1Nc1ccccc1)NCc1ccco1	20.7%	i	i	2.91e-08	?
CCc1ccccc1NS(=O)(=O)c1ccc2[nH]cc(C(=O)NCc3ccco3)c(=O)c2c1	0.6%	i	i	2.2e-08	-4.9%
C=CCn1c(SCC(=O)NCCOC)nc2scc(-c3ccco3)c2c1=O	7.1%	i	i	4.02e-08	8.2%
CCCSC1=C(C#N)C(c2ccccc2OCC)CC(=O)N1 (centres undefined)	0.9%	i	i	1e-09	0.8%
Cc1cc(C)c(S(=O)(=O)N2CCCCC2)c(C)c1-n1ncnn1	-1.6%	i	i	3.3e-09	11.0%
O=C(O)C1CC1c1ccc(Br)cc1 (centres undefined)	-1.9%	i	i	3.32e-08	7.8%
O=S(=O)(c1ccc2c(c1)OCCO2)N1CCN(c2cccc(Cl)c2)CC1	0.0%	i	i	2e-09	10.2%
Cc1noc(/C=C/N(C)C)c1S(=O)(=O)N1CCCC(C(=O)Nc2ccc3c(c2)OCO3)C1 (centres undefined)	1.7%	/	/	/	-7.5%
CC(C)(C)NC(=O)C1CN(S(=O)(=O)c2ccccc2)CCN1S(=O)(=O)c1ccccc1 (centres undefined)	0.9%	/	/	/	9.0%
O=C1C(c2ccncc2)N(CCC2=CCCCC2)C(=O)CN1C1CCCCC1 (centres undefined)	-1.6%	i	i	1e-09	10.5%
Cc1cc(NC(=O)C2CC(c3ccc(F)cc3)=NO2)no1 (centres undefined)	-2.6%	/	/	/	1.6%

An excerpt (hit frequency here may not be typical).
